UCH37 inh = inhibitors of human UCH37 deubiquitinase, primary screen, biochemical, Ub-AMC cleavage, fluorescence; hit rate 0.33% among 330,000; inhibition, % (concentration not given with the values); purified proteasome/UCH37;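 active = mean of two replicates above 20%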;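 also: 0% = compound-free wells with enzyme and 100% = wells lacking proteasome; stock transfer was 100 nL into about 20 µL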
Target sequence (Q9Y5K5 whole entry, looked up): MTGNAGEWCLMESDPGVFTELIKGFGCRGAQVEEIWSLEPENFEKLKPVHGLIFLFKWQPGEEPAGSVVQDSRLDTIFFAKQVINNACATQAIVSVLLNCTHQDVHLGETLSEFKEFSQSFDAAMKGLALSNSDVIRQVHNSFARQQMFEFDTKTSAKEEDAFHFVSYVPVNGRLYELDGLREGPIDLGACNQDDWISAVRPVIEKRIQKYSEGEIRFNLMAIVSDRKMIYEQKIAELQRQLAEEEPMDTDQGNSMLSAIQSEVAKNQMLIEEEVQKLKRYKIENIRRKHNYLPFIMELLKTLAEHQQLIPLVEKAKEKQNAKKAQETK
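Material: Human UCH37 enzyme supplied as purified proteasome complex | Schedule: 30 min preincubation with enzyme, 25 min cleavage at room temperature | Detection: AMC fluorescence 355/460 nm | Measure: % inhibition of Ub-AMC cleavage fluorescence | Controls: Wells without proteasome as full block, compound-free enzyme plus substrate as uninhibited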
RanGTP-Impb inh = inhibitors of RanGTP-importin-beta interaction, primary screen, biochemical, FRET, CFP-Ran, YFP-importin-beta, homogeneous; AID 2216, 2009; cell-free CFP-Ran/YFP-importin-beta FRET ratio; hit rate 1.1% among 300,000; inhibition, % (test concentration not listed); Ran GTPase (GTP-bound) - importin-beta complex;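 active = most replicates above 15%; inconclusive = exactly half above 15%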;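 also: 0% = DMSO wells and 100% = Ran loaded with GDP instead of GTP; wells of about 40 µL received 100 nL stock; the first replicate is given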
T cruzi inh = inhibitors of intracellular T. cruzi growth, primary screen, luminescence, NIH3T3 host cells; T. cruzi beta-gal in NIH3T3, 90 h; inhibition, % (test concentration not listed); hit rate 1.4% among 300,000;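 active = mean inhibition across valid replicates above about 55%, limit read from the data; inconclusive = mean below that limit but half or more replicates reach it; inactive = mean below it, under half of replicates reach it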;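 also: signal also drops with host cell toxicity which is not excluded here; 0% = plate median of DMSO wells and 100% = zero luminescence signal; higher percent means less beta-gal luminescence so fewer parasites; stock transfer was 50 nL into about 50 µL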
Beta cell apopt = inhibitors of cytokine-induced beta cell apoptosis, primary screen, luminescence. AID 435005, 2010. hit rate 0.8% among 300,000. INS-1E cytokine-induced death, ATP luminescence, 48 h; percent of positive-control rescue, neutral wells zero. protection from apoptosis, % (no concentration beside the values);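 active = all replicates at 75% or more, or half of them and the mean; inconclusive = half reach 75% but not the mean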;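 also: 0% = cytokine-treated negative control wells and 100% = positive control rescue; higher means more ATP so stronger rescue from cytokine killing; wells of about 40 µL received 100 nL stock; the first replicate is given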
Beta2AR agonist = beta2AR agonists driving receptor internalization, primary screen, cell-based, FAP fluorogen, flow cytometry. hit rate 0.43% among 340,000. AID 504454, 2011. Am2.2-beta2AR cells; reference of the scale not given here. Beta-2 adrenergic receptor (Homo sapiens), P07550. response, % (concentration not given with the values);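 active = response above a set limit, near 3 SD of response in nonfluorescent compounds, cut at about 42% in these data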;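 also: stock transfer was 100 nL into about 11 µL; a reference agonist was the positive control; negative values mostly stem from fluorescent compounds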
Target sequence (P07550 whole entry, looked up): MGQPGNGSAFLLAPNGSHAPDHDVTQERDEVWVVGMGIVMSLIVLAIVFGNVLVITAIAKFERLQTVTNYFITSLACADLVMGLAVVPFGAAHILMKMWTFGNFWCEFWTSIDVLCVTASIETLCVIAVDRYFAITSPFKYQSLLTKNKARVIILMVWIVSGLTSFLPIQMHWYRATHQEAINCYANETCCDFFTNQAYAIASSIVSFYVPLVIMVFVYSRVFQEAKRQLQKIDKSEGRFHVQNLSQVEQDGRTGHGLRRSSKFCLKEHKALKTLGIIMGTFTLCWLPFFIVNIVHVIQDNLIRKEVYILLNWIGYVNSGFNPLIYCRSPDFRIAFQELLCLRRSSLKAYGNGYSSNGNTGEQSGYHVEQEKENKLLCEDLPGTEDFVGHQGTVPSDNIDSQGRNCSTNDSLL
Bfl-1 A1 inh = caspase 3/7 activation in MEF A1-2A-BIM cells, primary screen, A1 inhibitor project, cell-based, luminescence, HTS. Caspase-Glo 3/7 luminescence, 3 h; percent of clofoctol response, vehicle zero. caspase activation, % (no concentration beside the values). hit rate 0.066% among 330,000. AID 2462, 2010;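 active = over half of replicate activation scores above 10%, or exactly half above 10 with the replicate mean above 10; inconclusive = replicate mean below 10 yet half the replicates above 10; inactive = over half of replicates below 10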;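 also: wells of about 30 µL received 50 nL stock; many hits fall short of the cut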
Calb FLC = C. albicans growth inhibition with fluconazole, primary screen, CaCi-2 strain, Alamar Blue fluorescence; C. albicans CaCi-2 (fluconazole-resistant clinical isolate) + fluconazole, 48 h; growth inhibition, % (concentration not given with the values); hit rate 0.57% among 300,000; AID 1979, 2009;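 active = most replicates above 75%; inconclusive = exactly half above 75%; inactive = most below 75%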;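 also: all wells also contain fluconazole at 8 µg/ml as a sub-toxic cotreatment; 0% = median of DMSO wells and 100% = median of geldanamycin control wells; wells of about 8 µL received 7.5 nL stock; the first replicate is given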
LANA-H2B inh = blockers of LANA interaction with H2A/H2B – biochemical, FP readout, HTS, primary screen. cell-free LANA-H2A/H2B peptide, fluorescence polarization. inhibition, % (test concentration not listed). hit rate 0.6% among 320,000. AID 2629, 2010; in the data active = inhibition mostly above about 10%, no sharp cut-off; inactive = mostly below about 6.7%;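 also: stock transfer was 7.5 nL into about 10 µL; 0% = median of vehicle wells and 100% = median of positive control wells; one replicate is shown; the record names a cut of 25% in any replicate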
Active calls of the source: *; i = inactive; ? = inconclusive; nt = not tested or not shown.

canonical_smiles	UCH37 inh	RanGTP-Impb inh	T cruzi inh	Beta cell apopt	Beta2AR agonist	Bfl-1 A1 inh	Calb FLC	LANA-H2B inh
Cc1ccc(OCC(=O)Nc2ccon2)c([N+](=O)[O-])c1	0.2	-1.9	-3	0	6	-2.1	1	0.2
O=C(OCC(=O)N1CCN(C(=O)c2ccco2)CC1)c1ccccc1OCc1ccccc1	4.1	-0.3	2	-4	-11	1.1	-6	-2.0
C[C@H](NS(=O)(=O)c1ccc2c(c1)OCCCO2)C(=O)N1CCN(Cc2ccc(C#N)cc2)CC1	0.1	nt	nt	-3	-6	-0.2	nt	-2.3
Cc1cccc(NC(=O)c2cc(C)nc3ccccc23)c1	0.9	2.0	-13	nt	-8	0.6	10	-0.2
Cc1cc(NC(=O)CCC(=O)N(c2cccnc2)C(C(=O)NC2CCCC2)c2ccccc2F)no1 (configuration not stated)	1.9	-4.5	11	-5	nt	1.0	-20	-1.7
COc1ccc(NC(=O)CN(C)CC(=O)NC(=O)NC2CCCCC2)cc1	3.3	nt	nt	6	-1	0.6	nt	-3.2
COc1ccc(-c2nn(-c3ccccc3F)cc2CNCCn2nc(C)cc2C)cc1	2.7	-0.9	17	-7	-10	1.3	15	1.1
COc1ccccc1N1CCN(S(=O)(=O)CCNC(=O)c2cc(=O)c3ccccc3o2)CC1	-0.4	-0.1	-21	1	-3	-1.4	-5	4.1
S=C(NCCc1cnc[nH]1)NC1CCCC1	-1.4	-0.1	-7	-5	-1	-0.5	-6	4.5
COc1ccc(-c2c(C)c3ccc(OCC(C)=O)cc3oc2=O)cc1	-116	-1.4	0	9	nt	-0.7	28	-6.2
Cc1cccc(OCC(=O)O/N=C(\N)c2ccncc2)c1	-0.9	-3.7	2	nt	1	-0.6	4	-1.2
COC(=O)[C@H](CCSC)NC(=O)Nc1ccc(OC)c(Cl)c1	-4.0	2.2	-2	-6	-3	-0.8	-8	1.9
O=C1COCCOCCOCC(=O)NCCN1	0.5	-2.6	-11	-1	-1	0.4	11	2.7
COc1ccc(-c2cc3ccccc3oc2=O)cc1NC(=O)c1ccc([N+](=O)[O-])o1	5.7	-2.4	56*	82*	5	-0.9	6	0.8
CCC(c1nnnn1CCC(C)C)N1CCC(C(N)=O)CC1 (configuration not stated)	4.6	3.9	-9	-5	-3	0.1	2	-2.3
Cc1cc(C)c(S(=O)(=O)NCC2CCC(C(=O)NCCCN3CCC(C)CC3)CC2)c(C)c1 (configuration not stated)	2.8	0.9	27	-3	14	0.5	19	2.3
O=C(OCn1nnc2ccccc2c1=O)c1ccc(S(=O)(=O)N2CCOCC2)cc1	-2.0	2.6	-15	-2	-9	-0.2	-8	-5.6
CC1CN(C(=O)Cn2cc(SCC(=O)N3CCOCC3)c3ccccc32)CC(C)O1 (configuration not stated)	-1.0	5.5	-8	-2	5	-0.6	-1	1.1
Cc1cc(C)cc(NC(=O)CN2C(=O)NC(Cc3c[nH]c4ccccc34)C2=O)c1 (configuration not stated)	0.4	nt	nt	-4	10	0.0	nt	-1.5
CC(OC(=O)c1cccc(-n2cnnn2)c1)C(=O)Nc1ccc(F)cc1 (configuration not stated)	0.4	1.4	2	-7	1	1.3	-10	0.2
O=C(NCc1ccccc1Cl)C1CCCN1C(=O)NCc1ccccc1 (configuration not stated)	0.5	-0.5	-13	15	2	1.0	4	2.0
CCOC(=O)COc1c(OC)cc(Cl)cc1C1NC(=O)NC(C)=C1C(C)=O (configuration not stated)	-1.2	0.4	17	-3	18	0.3	-7	-1.5
CC(/C=N/NC(=O)c1sc(N)nc1C)=C\c1ccccc1	nt	-2.3	-2	-8	13	-4.3	14	-5.1
Cc1ccc(S(=O)(=O)CCC(=O)Oc2ccc(-c3nnco3)cc2)cc1	5.9	0.1	-11	nt	-2	0.0	-4	0.2
CCOC(=O)c1c(S(=O)(=O)NCCCc2ccco2)c(C)n(C)c1C	4.0	0.6	17	nt	2	-1.6	1	1.4
Cn1c(=O)c2c(nc(NC3CCCCC3)n2Cc2ccccc2)n(C)c1=O	7.6	3.3	8	nt	5	0.3	-5	1.0
Cc1nc(C(N)=O)c(N)n1CCc1ccccc1	2.0	1.7	3	-11	2	-2.5	-2	1.3
COc1ccc(CCNS(=O)(=O)c2cn(C)cn2)cc1OC	-1.5	-2.1	5	-1	-4	-0.4	-1	-0.2
Cc1ccc(COC(=O)NCc2cccnc2)cc1	2.8	?	-15	-7	-4	1.6	2	-3.4
CCOc1ccc2c(c1)OC(c1ccc(C)cc1)(C(F)(F)F)NC2=O (configuration not stated)	4.3	1.6	51	17	24	0.7	?	2.3
Cc1ccc(NC(=O)CSc2ccccc2NC(=O)c2cccc(Cl)c2)cc1Cl	-1.2	-2.0	1	17	16	0.5	3	22
COc1cc2nc(CC(C)C)n(NC(=O)c3ccccc3)c(=O)c2cc1OC	3.7	0.8	2	-5	1	-0.1	-6	1.8
O=C1CC(C2CCCO2)C(=O)N1Cc1ccccc1 (configuration not stated)	1.2	-1.6	10	12	6	-0.7	8	4.5
COc1ccc(OCC(=O)NCCNC(=O)c2cccnc2)cc1	2.1	0.5	1	-4	0	0.5	46	-3.4
COc1cccc(C(c2sc3nc(C)nn3c2O)N2CCN(C(=O)c3ccco3)CC2)c1 (configuration not stated)	5.4	3.2	-5	-2	-4	1.4	4	-3.0
NC(=O)[C@H](Cc1cc2ccccc2s1)NC(=O)[C@@H]1CC2(CC(c3cccc(NC(=O)[C@@H]4CCC(=O)N4)c3)=NO2)CN1C(=O)c1ccccc1 (some centres not stated)	1.7	4.2	-6	0	-3	2.0	-8	3.6
O=C(O)CCCCN1C(=O)/C(=C\c2ccc(OCc3ccccc3)c(OCc3ccccc3)c2)SC1=S	9.6	-4.8	12	-7	13	1.2	8	10
COc1ccc(OCc2cc(C(=O)NCc3cccc(C)n3)no2)c(Cl)c1	-0.4	3.5	-6	-9	-1	-0.6	7	-0.4
CC(OC(=O)c1ccc2ncsc2c1)C(=O)NCc1ccccc1 (configuration not stated)	-1.0	2.3	-4	-4	nt	0.2	-1	0.9
CCCc1cc(NCCCCO)n2c(nc3ccccc32)c1C#N	i	43*	7	11	17	-0.4	-7	0.5
COc1ccc(C(=O)Nc2ccccc2NC(=O)c2ccco2)c(OC)c1	1.3	-5.5	-7	-1	3	-0.1	11	-6.4
CC(C)Cn1c(=O)c(C(=O)NCc2ccc3c(c2)OCO3)c(O)c2ccccc21	-3.3	1.4	-4	2	7	2.0	16	-3.6
Cc1cc(C)c(NC(=O)c2cnn(C)c2)c(C)c1	1.8	-1.2	6	-7	4	0.8	-8	-4.4
c1cnn(Cc2cnc(N3CCOCC3)s2)c1	6.0	-1.0	-6	-2	15	0.8	-15	-3.6
CCOc1ccccc1N(C)S(=O)(=O)c1ccc2[nH]cc(C(=O)N(CCOC)CCOC)c(=O)c2c1	-17	1.1	-12	-3	2	-0.5	15	2.9
O=C(COC(=O)c1ccc([N+](=O)[O-])cc1Cl)NC(=O)c1ccccc1	3.9	-14	-9	-6	3	-0.4	nt	2.7
COc1cccc(CN2CC(C(=O)N(C)C3CCOCC3)CCC2=O)c1 (configuration not stated)	3.8	-3.9	-15	1	-6	0.3	-3	-0.9
Cc1cc(C(F)(F)F)nn1CC(=O)NNC(=S)Nc1ccc(F)cc1	2.8	-2.3	-20	1	1	-0.6	-8	2.5
CC(=O)Nc1ccc(NC(=O)c2cc(=O)c3ccccc3o2)cc1	7.6	-1.3	6	-10	1	-0.5	-1	4.3
CC(C)c1ccccc1NC(=S)N(C)C	1.3	-1.9	-15	-1	9	0.7	-4	2.6
COc1ccccc1Nc1nc(-c2cccc(N3C(=O)c4ccccc4C3=O)c2)cs1	1.8	-3.0	-5	nt	6	0.0	-3	3.1
O=C(CCCN1CCC(C(=O)c2ccc(F)cc2)CC1)c1ccc(F)cc1	1.0	-4.5	4	1	10	0.0	-20	4.2
Cc1ccc(CSc2nc3ccsc3c(=O)n2Cc2ccccn2)cc1	0.3	-0.8	24	3	-4	0.2	3	nt
O=C(NC(Nc1nc2ccc([N+](=O)[O-])cc2s1)(C(F)(F)F)C(F)(F)F)c1ccccc1	3.2	3.0	52	118*	11	-1.8	33	1.7
CCc1ccc(-c2cc(C)no2)cc1S(=O)(=O)NCc1ccco1	5.9	0.3	3	-1	-16	-0.5	29	-3.0
Cc1cccc(NC(=O)c2nc[nH]c2C(=O)N[C@@H](CCCCNC(=O)OC(C)(C)C)C(=O)OC(C)(C)C)c1	4.6	?	62*	13	-3	1.2	3	1.9
CC[C@H]1OC(=O)[C@H](C)[C@@H](O[C@H]2C[C@@](C)(OC)[C@@H](O)[C@H](C)O2)[C@H](C)[C@@H](O[C@@H]2O[C@H](C)C[C@H](N(C)C)[C@H]2O)[C@](C)(O)C[C@@H](C)[C@@H]2N[C@@H](COCCOC)O[C@H]([C@H]2C)[C@]1(C)O	-1.2	0.1	4	-2	0	0.5	-10	0.2

Screening data: PubChem, several laboratories
